Screens: PubChem BioAssay, several laboratories
UCH37 DUB inh: inhibitors of human UCH37 deubiquitinase, primary screen, biochemical, Ub-AMC cleavage, fluorescence; purified proteasome/UCH37; inhibition, % (no concentration beside the values); 0.33% of 330,000 active; Ubiquitin carboxyl-terminal hydrolase isozyme L5 (Homo sapiens), Q9Y5K5;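 active = mean of two replicates above 20%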;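 note: 0% = compound-free wells with enzyme and 100% = wells lacking proteasome; stock transfer was 100 nL into about 20 µL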
Target sequence (Q9Y5K5 whole entry, looked up): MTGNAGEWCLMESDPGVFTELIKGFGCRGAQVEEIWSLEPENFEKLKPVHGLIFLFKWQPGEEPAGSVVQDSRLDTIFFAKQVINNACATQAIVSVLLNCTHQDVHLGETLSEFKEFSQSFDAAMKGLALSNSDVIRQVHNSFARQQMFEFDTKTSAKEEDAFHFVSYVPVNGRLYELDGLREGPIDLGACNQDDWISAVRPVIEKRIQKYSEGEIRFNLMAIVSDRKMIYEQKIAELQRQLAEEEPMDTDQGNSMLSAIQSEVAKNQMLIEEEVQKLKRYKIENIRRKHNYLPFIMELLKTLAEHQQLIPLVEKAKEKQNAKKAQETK
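Material: Human UCH37 enzyme supplied as purified proteasome complex | Schedule: 30 min preincubation with enzyme, 25 min cleavage at room temperature | Detection: AMC fluorescence 355/460 nm | Measure: % inhibition of Ub-AMC cleavage fluorescence | Controls: Wells without proteasome as full block, compound-free enzyme plus substrate as uninhibited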
Beta2AR agonist: beta2AR agonists driving receptor internalization, primary screen, cell-based, FAP fluorogen, flow cytometry; response, % (test concentration not listed); Am2.2-beta2AR cells; reference of the scale not given here; 0.43% of 340,000 active;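 active = response above a set limit, near 3 SD of response in nonfluorescent compounds, cut at about 42% in these data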;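 note: stock transfer was 100 nL into about 11 µL; a reference agonist was the positive control; negative values mostly stem from fluorescent compounds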
ALR H2O2 inh: inhibitors of human ALR sulfhydryl oxidase, primary screen, biochemical, H2O2 detection, HRP-luminol luminescence, single point; 3.8% of 290,000 active; inhibition, % (concentration not given with the values); FAD-linked sulfhydryl oxidase ALR (Homo sapiens), P55789; purified ALR, DTT oxidation;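 active = mean and each replicate at 75% or more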;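 note: stock transfer was 7.5 nL into about 7.5 µL; 0% = neutral wells and 100% = wells with inactivated enzyme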
Target sequence (P55789 whole entry, looked up): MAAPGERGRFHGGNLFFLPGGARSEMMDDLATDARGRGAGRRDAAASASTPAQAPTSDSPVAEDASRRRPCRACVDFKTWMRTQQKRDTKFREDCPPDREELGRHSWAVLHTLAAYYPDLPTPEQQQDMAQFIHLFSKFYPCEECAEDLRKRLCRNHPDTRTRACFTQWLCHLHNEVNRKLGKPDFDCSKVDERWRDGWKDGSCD
HNF4A DNA FP: change in binding of human HNF4A to DNA, primary screen, biochemical, fluorescence polarization, FITC-DNA; 0.3% of 360,000 active; activity change, % at 10 µM; Hepatocyte nuclear factor 4-alpha (Homo sapiens), P41235; AID 1224865, 2016; 1 h; in the data active = activity change above about 30%, passing the limit was not always enough;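 note: controls were the assay level and a saturating level of protein; the project sought stronger binding though the title names inhibitors; some compounds called inactive have numbers as strong as hits; positive values seem to mean higher polarization but the record does not say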
Target sequence (P41235 whole entry, looked up): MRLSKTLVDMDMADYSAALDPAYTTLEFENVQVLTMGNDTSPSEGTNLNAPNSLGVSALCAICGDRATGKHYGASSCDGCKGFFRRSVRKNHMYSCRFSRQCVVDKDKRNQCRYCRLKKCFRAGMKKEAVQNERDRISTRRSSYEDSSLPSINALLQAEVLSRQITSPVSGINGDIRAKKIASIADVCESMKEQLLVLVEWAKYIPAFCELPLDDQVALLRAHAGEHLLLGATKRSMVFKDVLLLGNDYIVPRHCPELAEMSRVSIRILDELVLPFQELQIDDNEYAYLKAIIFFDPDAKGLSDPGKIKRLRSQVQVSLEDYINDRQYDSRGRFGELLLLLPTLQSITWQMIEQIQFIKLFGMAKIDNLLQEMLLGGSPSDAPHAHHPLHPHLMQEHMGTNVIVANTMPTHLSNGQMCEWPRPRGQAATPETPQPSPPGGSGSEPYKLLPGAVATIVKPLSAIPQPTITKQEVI
rRNA inh HTS: reduced GFP signal of wild-type E. coli, primary screen, bacterial rRNA inhibitor project, GFP/RFP fluorescence, OD600, single point; E. coli WT GFP vs humanized-ribosome RFP mutants, 24 h; active compounds read low; DMSO median 0, no signal -100; GFP signal change (wild-type ribosome), % (concentration not given with the values); 1.6% of 350,000 active; AID 720706, 2013;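 active = significant combined selectivity score with lowered wild-type GFP, culture density cut under 30%, mutant RFP and density less affected; inactive = any of these conditions unmet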; note: one replicate is shown; some compounds called inactive have numbers as strong as hits
E coli growth: E. coli growth inhibition, primary screen, OD600; 0.21% of 330,000 active; OD600 absorbance (concentration not given with the values); Escherichia coli growth, 23 h; active compounds read low;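 active = OD600 absorbance below the run mean of sample wells minus 3.6 SD, in any replicate, cut at about 0.56 in these data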;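 note: stock transfer was 300 nL into about 60 µL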
FGF22 binding: binders of human FGF22 protein, primary screen, FGF22 synaptogenesis inhibitor project, biophysical, thermal shift, single point; Fibroblast growth factor 22 (Homo sapiens), Q9HCT0; recombinant FGF22 thermal shift, SYPRO orange fluorescence; percent of sucrose octasulfate shift, DMSO zero; calls only at 9.99 µM; 1.5% of 340,000 active; AID 651658, 2012;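 active = melting point raised past a set limit in the mean and every replicate; three in four hits are not shown here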
rRNA inh HTS OD600: recorded beside rRNA inh HTS, whose call it bears; OD600 change, %; measured here: OD600 growth;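 optical density of the mix in the first replicate; 0 = DMSO median and -100 = no signal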
rRNA inh HTS RFP: also measured in rRNA inh HTS; calls as there; RFP signal change, %; measured here: RFP humanized mutant strains;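 first replicate; 0 = DMSO median and -100 = no signal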
An asterisk follows results filed as active; i = inactive; nt = no result given. Some of the compounds tested (hit frequency here may not be typical).

canonical_smiles | UCH37 DUB inh | Beta2AR agonist | ALR H2O2 inh | HNF4A DNA FP | rRNA inh HTS | rRNA inh HTS OD600 | rRNA inh HTS RFP | E coli growth | FGF22 binding
COc1ccc(C(=O)c2c(C)oc3cc([N+](=O)[O-])c(O)c([N+](=O)[O-])c23)cc1 | 14 | 2 | -17 | 3.3 | nt | nt | nt | 0.65 | nt
COc1ccc(C2(C)NC(=O)N(CC(=O)Nc3ccc(C)cc3Br)C2=O)cc1OC (configuration not stated) | 0.2 | -1 | 3 | 1.1 | -2 | -1 | -1.3 | 0.68 | i
COc1ccc(CCN=CC2=C(O)CCCC2=O)cc1OC | 1.4 | -1 | -3 | -0.6 | nt | nt | nt | 0.7 | nt
Cn1c(Cn2nnc3ccccc32)nnc1SCC(=O)c1ccc(F)cc1 | 2.9 | -2 | 11 | -1.5 | 2 | 7 | -1.0 | 0.68 | i
COc1ccc(NS(=O)(=O)c2cc(NC(=O)CCSc3ccccc3)ccc2OC)cc1 | 0.9 | 11 | -19 | 0.7 | nt | nt | nt | 0.65 | nt
O=C(C1CC(=O)N(c2ccc3c(c2)OCCO3)C1)N1CCN(S(=O)(=O)c2ccc(F)cc2)CC1 (configuration not stated) | -1.8 | -8 | nt | -2.9 | 9 | 5 | -0.3 | 0.71 | i
CCOc1ncccc1C(=O)Nc1cc(S(=O)(=O)N2CCOCC2)ccc1N1CCCC1 | 0.9 | 9 | 1 | -1.8 | 7 | 4 | 1.4 | 0.66 | nt
Nc1nc(SCC(=O)N2CCOCC2)n[nH]1 | 1.0 | 3 | -8 | -8.9 | 18 | 13 | -3.4 | 0.68 | i
CCCCNC(=O)c1cc2c(=O)n3cccc(C)c3nc2s1 | -449 | -8 | -10 | 3.7 | 1 | 2 | -2.0 | 0.69 | i
O=C(Cc1coc2cc3c(cc12)CCC3)NC1CCCCCCC1 | 3.2 | -3 | -11 | 1.0 | 4 | -9 | 3.9 | 0.71 | i
O=C(CN1CCN(C/C=C/c2ccccc2)CC1)Nc1cc([N+](=O)[O-])ccc1Cl | 1.5 | -5 | -32 | -1.5 | nt | nt | nt | 0.68 | nt
CCN(CC)c1ccc(S(=O)(=O)N2CCOCC2)cc1NC(=O)CN1CCN(Cc2ccccc2)CC1 | 3.2 | 13 | -1 | 4.7 | -22 | -11 | 30 | 0.68 | i
COc1ccc(-c2noc(N3CCC(C(=O)NCc4ccc(F)cc4)CC3)n2)cc1 | 4.7 | 12 | 2 | 0.2 | 3 | 8 | 1.6 | 0.77 | i
C[C@@H]1Cn2cnc(C(=O)N[C@@H](C)c3ccccc3)c2C(=O)N1 | nt | nt | nt | 2.8 | 8 | 7 | 0.3 | nt | i
COc1ccc(NC(=O)CSCC(=O)NC2(C)CCS(=O)(=O)C2)cc1 (configuration not stated) | 1.2 | -4 | -9 | 0.2 | 13 | 16 | 1.0 | 0.69 | nt
Cc1cc2occ(CC(=O)N(C)CC(=O)Nc3cccc(F)c3)c2cc1C | 0.5 | 4 | 4 | 2.8 | -18 | -36 | 1.9 | 0.66 | i
Cc1cc(C)c(S(=O)(=O)c2ccccc2)c(OC(=O)c2c(F)cccc2Cl)n1 | 1.2 | 13 | 30 | 0.7 | nt | nt | nt | 0.73 | nt
O=C(COC(=O)c1ccc([N+](=O)[O-])cc1)NC1CCCC1 | 0.3 | 3 | -10 | 2.7 | 6 | 17 | -2.3 | 0.7 | i
COc1ccc(CCNC(=O)c2c[nH]c3ccc(F)cc3c2=O)cc1OC | 3.8 | -7 | nt | 2.7 | -19 | -8 | 0.8 | 0.61 | i
CCN(CC(=O)Nc1ccc(C(C)=O)cc1)CC(=O)Nc1ccc2c(c1)OCCO2 | 0.9 | 7 | nt | -1.6 | -10 | -4 | 7.5 | 0.65 | i
O=C(Nc1cccc(C(=O)O)c1)/C(=C\c1ccc2c(c1)OCO2)NC(=O)c1ccccc1Br | nt | nt | nt | -0.6 | 3 | 13 | -0.4 | nt | i
COc1ccc2nc(NC(=O)CNS(=O)(=O)c3cccs3)sc2c1 | 2.4 | 6 | -16 | 7.9 | -27 | -24 | 2.0 | 0.67 | i
CCN(CC)c1nc(-c2nn[nH]n2)nc(N(CC)CC)n1 | 1.3 | -1 | 54 | 2.7 | nt | nt | nt | 0.67 | nt
O=C(NC(Cc1ccccc1)C(=O)OCC(=O)N1CCc2ccccc21)c1ccco1 (configuration not stated) | -7.8 | 4 | 1 | -0.6 | nt | nt | nt | 0.7 | nt
CCN(CC)c1ccc(/C=N/NC(=O)c2cccc(S(=O)(=O)N3CCOCC3)c2)cc1 | nt | 10 | 6 | 1.5 | 13 | 9 | -11 | nt | i
NS(=O)(=O)c1ccc(CCNC(=O)CN2CCN(c3cccc(Cl)c3)CC2)cc1 | 0.8 | -2 | 6 | -2.4 | -4 | -4 | 6.4 | 0.68 | i
Cc1ccc(NC2(C#N)CCCC2)cc1 | 1.4 | 4 | nt | 1.2 | -3 | 6 | -0.2 | 0.64 | i
CS(=O)(=O)c1ccc2nc(NC(=O)Cc3ccccc3)sc2c1 | 5.8 | 0 | -7 | -1.1 | -4 | -6 | 3.6 | 0.76 | i
CCOC(=O)c1cc(-c2cccc(C(F)(F)F)c2)nc2nc(SC)[nH]c(=O)c12 | -72 | -18 | 5 | -1.0 | nt | nt | nt | 0.67 | nt
CC(C)C(C)NC(=O)COc1ccc(OCc2ccccc2)cc1 (configuration not stated) | 0.7 | 5 | 5 | -2.0 | -8 | -4 | 0.9 | 0.69 | i
COc1cc(C(=O)NCc2ccc3c(c2)OCO3)c([N+](=O)[O-])cc1OC | 9.3 | -8 | -25 | 2.5 | 9 | 2 | 4.1 | 0.67 | i
N#Cc1cccc(NCC(=O)Nc2ccc3c(c2)OCCO3)c1 | -0.1 | 0 | -5 | -3.1 | 5 | 3 | -0.8 | 0.7 | i
O=C(NC1CCCCC1)C(c1ccc(F)cc1)N(C(=O)c1cccs1)c1ccc2c(c1)OCO2 (configuration not stated) | 0.7 | -7 | -1 | -2.3 | 8 | 5 | -0.7 | 0.64 | i
Cc1cccc2sc(NC(=O)c3cc(S(=O)(=O)N(C)C)ccc3N3CCCC3)nc12 | 3.9 | 10 | -2 | 0.7 | 6 | -9 | 2.2 | 0.67 | i
NC(=O)c1ccc(NC(=O)COc2ccc(-n3cnnn3)cc2)cc1 | -2.4 | -4 | -8 | -2.9 | 1 | 1 | 3.7 | 0.7 | i
CC(C)(C)c1ccc(NC(=O)C2=CC=CN3CCS(=O)(=O)N=C23)cc1 | 0.2 | 1 | 2 | 1.3 | 11 | 5 | 4.7 | 0.72 | i
CCOCCCN(C(=O)Cn1nnc(-c2ccc(C)o2)n1)C(C(=O)NC1CCCC1)c1ccco1 (configuration not stated) | 4.4 | 1 | -2 | -2.1 | -3 | -6 | -0.8 | 0.7 | i
CC1(C)CC(=O)C/C(=N\NC(=S)NCc2ccccc2)C1 | nt | -9 | 9 | -2.2 | -2 | -7 | 26 | nt | i
N#Cc1ccc(OCC(=O)NNC(=S)NC2CCCCC2)cc1 | -0.2 | 1 | 3 | 3.4 | nt | nt | nt | 0.63 | i
CCOC(=O)C1CCCN(C(=O)COC(=O)c2cc(=O)c3ccccc3o2)C1 (configuration not stated) | -0.2 | 5 | -1 | -0.6 | nt | nt | nt | 0.67 | nt
CCCn1c2ccccc2c2cnn(CC(=O)NCCCN3CCCCC3)c(=O)c21 | -4.9 | -5 | 0 | -1.4 | 11 | 9 | 3.1 | 0.69 | i
COc1ccc(OC)c(NC(=O)c2c3c(nc4ccccc24)CCC3)c1 | 1.6 | -8 | -21 | 5.7 | -22* | -7.2* | 2.7* | 0.72 | i
Nc1ccc2nc(SCC(=O)N3CCOCC3)sc2c1 | 3.2 | 0 | 99* | 1.8 | 7 | 5 | 0.8 | 0.7 | i
O=C(NCCC1=CCCCC1)c1cc(-c2ccccn2)nc2ccccc12 | 2.0 | 2 | -15 | -4.0 | 5 | 6 | 1.2 | 0.69 | i
N#CC(c1ccccc1)c1ccc2c(C(F)(F)F)cc(C(F)(F)F)nc2n1 (configuration not stated) | 3.7 | 19 | -6 | 4.5 | nt | nt | nt | 0.76 | nt
O=C(COC(=O)c1ccc(F)c(S(=O)(=O)N2CCOCC2)c1)Nc1ccc2[nH]c(=O)[nH]c2c1 | 3.0 | -20 | -1 | 0.0 | 8 | 9 | -0.3 | 0.66 | i
O=C(O)c1cc(-c2ccc(Cl)cc2)n(-c2ccccc2)n1 | -0.4 | -2 | -1 | 5.0 | -24 | -30 | -7.6 | 0.69 | i
Cc1ccc(C(=O)N[C@H](C(=O)OCc2cc(=O)oc3cc(C)ccc23)C(C)C)cc1 | -2.8 | 1 | 2 | -1.1 | nt | nt | nt | 0.65 | nt

Entries of single compounds, looked up by structure. Order of screens: UCH37 DUB inh	Beta2AR agonist	ALR H2O2 inh	HNF4A DNA FP	rRNA inh HTS	rRNA inh HTS OD600	rRNA inh HTS RFP	E coli growth	FGF22 binding
Listed for COc1ccc(OC)c(NC(=O)c2c3c(nc4ccccc24)CCC3)c1 → 1.6	-8	-21	5.7	-22*	-7.2*	2.7*	0.72	i
Listed for O=C(NCCC1=CCCCC1)c1cc(-c2ccccn2)nc2ccccc12 → 2.0	2	-15	-4.0	5	6	1.2	0.69	i
Listed for O=C(COC(=O)c1ccc(F)c(S(=O)(=O)N2CCOCC2)c1)Nc1ccc2[nH]c(=O)[nH]c2c1 → 3.0	-20	-1	0.0	8	9	-0.3	0.66	i

The list continues.
canonical_smiles | UCH37 DUB inh | Beta2AR agonist | ALR H2O2 inh | HNF4A DNA FP | rRNA inh HTS | rRNA inh HTS OD600 | rRNA inh HTS RFP | E coli growth | FGF22 binding
COc1ccccc1NC(=O)CCCC(=O)OCC(F)(F)C(F)F | 0.8 | 11 | -7 | -4.6 | nt | nt | nt | 0.65 | nt
CC(=O)c1cccc(NC(=O)COC(=O)C2=COCCO2)c1 | 0.1 | -2 | -2 | 0.1 | nt | nt | nt | 0.7 | nt
CC(C)(C)OC(=O)N1CCC[C@H]1c1nnc(SCc2c(F)cccc2Cl)o1 | 5.4 | 5 | -25 | -0.2 | nt | nt | nt | 0.78 | nt
S=C(NCc1ccco1)N1CCC(c2nc3ccccc3o2)CC1 | 4.8 | -14 | nt | 1.3 | 14 | 28 | 6.5 | 0.7 | i
CC1(C(=O)N(CC(=O)NC2CCCC2)Cc2ccco2)CC(=O)N=C2C=CC=CN21 (configuration not stated) | -285 | 1 | -10 | -0.3 | nt | nt | nt | 0.69 | nt
Cc1ccc(-c2c3c(=O)n(C)c(=O)n(C)c3cn2Cc2ccccn2)cc1 | -0.5 | 3 | -18 | 1.8 | nt | nt | nt | 0.69 | nt
Cc1ccc(C)c(CSc2ccc3nnc(-c4ccccn4)n3n2)c1 | 3.7 | -3 | nt | 0.3 | -24 | -27 | -1.3 | 0.71 | i
CCOc1cc(/C=C(\C#N)C(=O)Nc2ccccn2)ccc1O | 4.3 | 2 | 23 | 3.0 | 4 | 9 | 0.8 | 0.69 | i
